TRPC4 inh: inhibitors of mouse TRPC4 channel; actives 0.39% (n = 300,000); AID 2247; B-score at 10 µM; HEK293 TRPC4beta/mu-opioid, DAMGO-evoked Fluo4 calcium flux; hits give low values;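 active = B-score over 3 SD under the library average, no early fluorescence shift, positive overall ratio signal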
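Material: HEK293 cells with stable TRPC4beta plus mu-opioid receptor expression / Probe or stimulus: DAMGO in two steps, submaximal then maximal / Compound: single concentration per test compound / Technique: kinetic Fluo4 fluorescence imaging of calcium influx / Read-out: per-well B score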
TRPC6 act: mouse TRPC6 channel activation | HEK293-TRPC6 membrane potential dye fluorescence; hits give high values | Q61143 | AID 2550 | B-score at 10 µM | actives 0.13% (n = 310,000);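 active = B-score of the integrated fluorescence ratio above library mean plus 3 SD, and starting fluorescence ratio within library mean plus 5 SD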;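 note: higher score means more depolarization so channel activation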
AI-2 QS mod: modulates the Vibrio harveyi AI-2 quorum sensing system | activity change, % at 7.5 µM | Vibrio harveyi JMH597 AI-2 luminescence/OD600 ratio, 9 h; hits give low values; strain lacks LuxN and CqsS sensors; 0 = neutral-control median | actives 0.4% (n = 300,000) | AID 2094; in the data active = activity change below about -75%, passing the limit was not always enough;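 note: luminescence divided by OD600 gain over 9 h not by final OD600 alone; inactives centre near 13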
TRPC4 agonist: activators of mouse TRPC4 channel; Q9QUQ5; HEK293 TRPC4beta/mu-opioid, Fluo4 calcium fluorescence; hits give high values; B-score at 10 µM; actives 0.49% (n = 310,000); AID 2237;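 active = B-score above 5 SD of library B-scores, and initial fluorescence ratio not above library mean plus 5 SD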;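 note: positive B-score marks a calcium rise read as TRPC4 activation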
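Material: TRPC4beta and mu-opioid receptor HEK293 stable cells | Incubation: 45 min room-temperature Fluo4 loading, 110 s read | Detection: Kinetic Fluo4 calcium fluorescence | Measure: Integrated baseline-normalised fluorescence ratio, converted to per-well B score | Benchmarks: Low control buffer alone, high control maximal DAMGO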
MrgX1 agonist: agonists of human MrgX1 receptor. B-score at 10 µM. MrgX1-HEK293 cells, Fluo-4 calcium fluorescence, agonist mode; hits give high values. actives 0.44% (n = 310,000). Q96LB2;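 active = calcium response B-score plate-corrected fluorescence ratio at least 3 library SD, with starting fluorescence B-score inside 5 SD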
Target sequence (Q96LB2 whole entry, looked up): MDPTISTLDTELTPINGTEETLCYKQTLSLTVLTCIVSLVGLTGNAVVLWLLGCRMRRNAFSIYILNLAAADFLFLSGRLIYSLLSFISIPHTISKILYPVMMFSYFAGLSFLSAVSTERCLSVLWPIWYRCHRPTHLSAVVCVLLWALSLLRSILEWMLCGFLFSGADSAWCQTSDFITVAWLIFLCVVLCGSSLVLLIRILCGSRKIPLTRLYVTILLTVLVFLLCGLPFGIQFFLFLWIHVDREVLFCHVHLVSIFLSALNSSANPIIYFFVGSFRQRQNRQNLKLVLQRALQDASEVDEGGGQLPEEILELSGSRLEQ
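Assay system: stable human MrgX1 HEK293 cell line. Quantity: 15,000 cells per well. Schedule: cells plated overnight, dye loaded 0.5 h 37 °C, 0.5 h room temperature. Detection: Fluo-4 NW calcium-flux fluorescence, kinetic read. Read-out basis: peak-minus-minimum fluorescence over baseline, converted to B scores. Control set: positive and negative control wells on each plate.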
MrgX1 allo act: allosterically activates human MrgX1 receptor signaling. MrgX1-HEK293, Fluo-4 calcium flux, FDSS; hits give high values. AID 588675. B-score at 10 µM. actives 0.63% (n = 310,000);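 active = plate-corrected calcium response at least 3 library SD above typical, normal starting fluorescence, not activating the receptor alone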;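 note: compound read alongside a low EC10 to EC30 dose of BAM8-22 agonist; peak minus trough fluorescence over baseline measured at the second addition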
PolyA inh: yeast polyadenylation inhibition; S. cerevisiae SKY197-pL101 polyadenylation reporter, beta-gal luminescence; efflux-impaired pdr1/pdr3 knockout yeast; score 100 = 6 SD above DMSO; calls only at 12 µM; actives 0.02% (n = 300,000); AID 1875;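 active = lowest replicate activity score at least 50, where 100 means six control SD above control mean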;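 note: yeast exposed to compound for 9 h at 30 °C; higher score means more reporter readthrough which indicates perturbed polyadenylation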
TRPC4 PAM: TRPC4 (mouse) allosteric potentiation; B-score at 10 µM; AID 2227; actives 0.42% (n = 310,000); HEK293 TRPC4beta/mu-opioid, DAMGO EC20, Fluo-4 Ca2+ flux; hits give high values; Q9QUQ5;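 active = B-score of calcium response area above 5 SD of library B-scores, with initial fluorescence ratio within 5 SD of library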;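 note: B-score of integrated fluorescence ratio over time as area under calcium response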
MrgX1 antagonist: human MrgX1 receptor antagonism, primary screen | Q96LB2 | MRGX1-HEK293 calcium flux, Fluo-4, BAM8-22 antagonism; hits give low values | B-score at 10 µM | actives 1.3% (n = 310,000) | AID 588676;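 active = calcium-response B-score plate-corrected more than 3 library SD below zero, starting fluorescence within 5 deviations, no agonist response on first addition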;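 note: peak minus trough fluorescence over baseline after final BAM8-22 challenge near maximal dose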
TRPC6 inh: blocks the mouse TRPC6 cation channel; Q61143; HEK293-TRPC6, membrane potential dye, ACh-evoked depolarization; hits give low values; B-score at 10 µM; actives 1.1% (n = 310,000); AID 2553;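 active = B-score under library mean minus 3 SD, initial fluorescence not abnormally high, positive integrated signal ratio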;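 note: B-score derived from integrated fluorescence ratio over the kinetic read; more negative B-score means stronger inhibition of depolarization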
Active calls of the source: *; i = inactive. Only part of the results is shown; count on the stated rates, not on these rows.

Letters: A = TRPC4 inh; B = TRPC6 act; C = AI-2 QS mod; D = TRPC4 agonist; E = MrgX1 agonist; F = MrgX1 allo act; G = PolyA inh; H = TRPC4 PAM; I = MrgX1 antagonist; J = TRPC6 inh
[1] C[C@H](CCC(=O)O)[C@H]1CC[C@H]2[C@@H]3C(=O)C[C@@H]4CC(=O)CC[C@]4(C)[C@H]3CC(=O)[C@]12C
  A: i	B: i	C: 21.7	D: i	E: i	F: i	G: i	H: i	I: i	J: i
[2] N=C(N)SCc1ccc(Cl)cc1Cl
  A: i	B: i	C: 4.7	D: i	E: 38.8*	F: i	G: i	H: i	I: i	J: i
[3] CCOC(=O)c1c(NC(=O)CCN2CCOCC2)sc2c1CC(C)(C)OC2
  A: i	B: i	C: -4.9	D: i	E: i	F: i	G: i	H: i	I: i	J: i
[4] O=C(O)CC(O)(CC(=O)O)C(=O)O
  A: i	B: i	C: 19.4	D: i	E: i	F: i	G: i	H: i	I: i	J: i
[5] O=C1C2ON(c3ccccc3)C(c3ccncc3)C2C(=O)N1c1ccccc1 (stereo unspecified)
  A: i	B: i	C: 9.3	D: i	E: i	F: i	G: i	H: i	I: i	J: i
[6] O=c1c(-c2ccc(Cl)cc2)[n+]([O-])c2ccccc2n1O
  A: i	B: i	C: 8.5	D: i	E: i	F: i	G: i	H: i	I: i	J: i
[7] CSc1sc(C(=O)O)c2c1C(=O)CCC2
  A: i	B: i	C: 22.3	D: i	E: i	F: i	G: i	H: i	I: i	J: i
[8] NS(=O)(=O)c1ccc(-c2ccc(C=NC3CCS(=O)(=O)C3)o2)cc1 (stereo unspecified)
  A: i	B: i	C: 30.5	D: i	E: i	F: i	G: i	H: i	I: i	J: i
[9] C=C(C)C1Cc2c(C)nn(-c3nc(C)cc(C)n3)c2C1 (stereo unspecified)
  A: i	B: i	C: 15.8	D: i	E: i	F: i	G: i	H: i	I: i	J: i
[10] CN=C(c1ccco1)n1c(=S)nc(-c2ccco2)n(C)c1=S
  A: i	B: i	C: 8.7	D: i	E: i	F: i	G: i	H: i	I: i	J: i
[11] CC1=NS(=O)(=O)c2cc(Cl)ccc2N1
  A: i	B: i	C: 12.4	D: i	E: i	F: i	G: i	H: i	I: i	J: i
[12] N#CC1(c2ccccc2)CCC(=NO)CC1 (stereo unspecified)
  A: i	B: i	C: 10.4	D: i	E: i	F: i	G: i	H: i	I: i	J: i
[13] Cc1c(C(Nc2ccccn2)c2ccccc2)c(=O)n(-c2ccccc2)n1C (stereo unspecified)
  A: i	B: i	C: 5.1	D: i	E: i	F: i	G: i	H: i	I: i	J: i
[14] S=c1[nH]nc(-c2ccccc2)n1Cc1ccccc1
  A: i	B: i	C: 3.3	D: i	E: i	F: i	G: i	H: i	I: i	J: i
[15] OC(CNCCCN1CCCCC1)COc1ccccc1 (stereo unspecified)
  A: i	B: i	C: 29.3	D: i	E: i	F: i	G: i	H: i	I: i	J: i
[16] COc1cc(C2C(C#N)=C(N)Oc3cc(C)n(CCc4ccccc4)c(=O)c32)cc2c1OCO2 (stereo unspecified)
  A: i	B: i	C: 21.1	D: i	E: i	F: i	G: i	H: i	I: i	J: i
[17] O=C(CCCCCCC(=O)Nc1ccccc1)NO
  A: i	B: i	C: 29.0	D: i	E: i	F: i	G: i	H: i	I: i	J: i
[18] COC(=O)c1ccccc1NC(=O)CSc1nnc(-c2ccncc2)o1
  A: i	B: i	C: 22.2	D: i	E: i	F: i	G: i	H: i	I: i	J: i
[19] Fc1ccccc1-c1nc(NCCCN2CCOCC2)c2ccccc2n1
  A: i	B: i	C: 17.4	D: i	E: i	F: i	G: i	H: i	I: i	J: -5.09*
[20] Cc1cc2nncn2c(Cc2ccccc2)n1
  A: i	B: i	C: 14.0	D: i	E: i	F: i	G: i	H: i	I: i	J: i

Some of these compounds in order of heavy-atom count, rising.
Letters: A = TRPC4 inh; B = TRPC6 act; C = AI-2 QS mod; D = TRPC4 agonist; E = MrgX1 agonist; F = MrgX1 allo act; G = PolyA inh; H = TRPC4 PAM; I = MrgX1 antagonist; J = TRPC6 inh
[20] Cc1cc2nncn2c(Cc2ccccc2)n1
  A: i	B: i	C: 14.0	D: i	E: i	F: i	G: i	H: i	I: i	J: i
[14] S=c1[nH]nc(-c2ccccc2)n1Cc1ccccc1
  A: i	B: i	C: 3.3	D: i	E: i	F: i	G: i	H: i	I: i	J: i
[18] COC(=O)c1ccccc1NC(=O)CSc1nnc(-c2ccncc2)o1
  A: i	B: i	C: 22.2	D: i	E: i	F: i	G: i	H: i	I: i	J: i
[19] Fc1ccccc1-c1nc(NCCCN2CCOCC2)c2ccccc2n1
  A: i	B: i	C: 17.4	D: i	E: i	F: i	G: i	H: i	I: i	J: -5.09*

Compound profiles (already shown). Values in the order: TRPC4 inh | TRPC6 act | AI-2 QS mod | TRPC4 agonist | MrgX1 agonist | MrgX1 allo act | PolyA inh | TRPC4 PAM | MrgX1 antagonist | TRPC6 inh
Shown for O=C(CCCCCCC(=O)Nc1ccccc1)NO : i | i | 29.0 | i | i | i | i | i | i | i
Shown for CSc1sc(C(=O)O)c2c1C(=O)CCC2 : i | i | 22.3 | i | i | i | i | i | i | i
Shown for O=C1C2ON(c3ccccc3)C(c3ccncc3)C2C(=O)N1c1ccccc1 (stereo unspecified) : i | i | 9.3 | i | i | i | i | i | i | i
Shown for CC1=NS(=O)(=O)c2cc(Cl)ccc2N1 : i | i | 12.4 | i | i | i | i | i | i | i
Shown for COC(=O)c1ccccc1NC(=O)CSc1nnc(-c2ccncc2)o1 : i | i | 22.2 | i | i | i | i | i | i | i
